Env fusion inh: inhibitors of HIV-1 Env-driven cell-cell fusion, primary screen, HeLa-JRFL effector, CEM21 target cells, luciferase. actives 1.1% (n = 360,000). AID 651610, 2012. inhibition, % at 12.3 µM;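 active = mean replicate inhibition score of at least 50 and every replicate individually at or above 50; inconclusive = only one of the two criteria met; inactive = mean below 50 and not all replicates reaching 50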;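 also: 0% = plate neutral controls and 100% = maraviroc near 300 nM; one replicate is shown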
* = called active by the depositor; ? = inconclusive; [ ] = dose if it differs, or a comment. These rows are one share of the data; rates above refer to the full screens.

| smiles | Env fusion inh |
| --- | --- |
| C[C@H]1CN([C@@H](C)CO)C(=O)c2cccc(N(C)C)c2O[C@H]1CN(C)C(=O)NC1CCCCC1 | 12.9[16.7 µM] |
| COC(=O)c1cc2c(c3c4cc(OC)ccc4n(S(=O)(=O)c4ccc(OC)cc4)c13)C(=O)N(C1CCCCC1)C2 | 20.7 |
| COc1ccccc1CNC(=O)C[C@@H]1C[C@@H]2c3cc(NC(=O)c4cccnc4)ccc3O[C@@H]2[C@@H](CO)O1 | 0.1[16.7 µM] |
| Cc1ccc(S(=O)(=O)N[C@@H]2C=C[C@H](CC(=O)NCCN3CCCCC3)O[C@@H]2CO)cc1 | -14.9[16.7 µM] |
| CO[C@@H]1CN(C)C(=O)c2ccc(NC(=O)c3cc(C)on3)cc2OC[C@@H](C)N(S(=O)(=O)c2ccc(F)cc2)C[C@H]1C | 31.0[16.7 µM] |
| CO[C@@H]1CN(C)C(=O)c2ccc(NC(=O)NC(C)C)cc2OC[C@@H](C)N(C(=O)CC2CC2)C[C@@H]1C | -11.1[16.7 µM] |
| O=C(NCc1ccccc1)[C@@H]1CCCN1C(=O)[C@H]1CCCN1C(=O)c1ccc(Cl)c(Cl)c1 | ? |
| CNC[C@H]1Oc2ncc(C#Cc3ccccc3F)cc2C(=O)N([C@H](C)CO)C[C@H]1C | -6.5[16.7 µM] |
| CCNC(=O)[C@@H]1[C@@H](CO)[C@@H]2Cn3c(ccc(-c4ccccc4)c3=O)[C@H]1N2CCC(F)(F)F | 11.5[16.7 µM] |
| O=C1NC(Cc2ccc(O)cc2)c2nc3ccc(Cl)cc3c(=O)n2-c2ccc(Cl)cc21 (configuration not stated) | 6.4 |
| O=C(N[C@H](Cc1ccccc1)C(=O)N1CCN(c2ncccn2)CC1)[C@H]1O[C@@H](n2ccc(=O)[nH]c2=O)[C@H](O)[C@@H]1O | -2.1 |
| CCCN1[C@@H]2c3ccc(-c4cccc(F)c4)c(=O)n3C[C@@H]2[C@@H](CO)[C@@H]1C(=O)N[C@H](C)c1ccccc1 | -18.4[16.7 µM] |
| CC(C)CC1NC(=O)c2ccc(Cl)cc2-n2c1nc1ccc(Cl)cc1c2=O (configuration not stated) | -13.5 |
| COc1cccc(-c2cn(CC[C@@H]3CC[C@H](NS(=O)(=O)Cc4ccccc4)[C@H](CO)O3)nn2)c1 | 4.7[16.7 µM] |
| Nc1[nH]c(C(=O)c2ccccc2)c(-c2ccc(Cl)c(F)c2)c1C(=O)c1c[nH]c2ccccc12 | 6.3 |
| O=C(C[C@@H]1C[C@H]2c3cc(NC(=O)CC4CC4)ccc3O[C@H]2[C@@H](CO)O1)NCc1ccc(Cl)cc1 | 11.8[16.7 µM] |
| COCC(=O)N[C@H]1C=C[C@@H](CC(=O)N2CCCCC2)O[C@H]1CO | 0.6[16.7 µM] |
| CC(C)[C@H](NC(=O)c1cccs1)C(=O)N1CCC[C@H]1C(=O)NCc1ccccc1 | 0.0 |
| C[C@H](CO)N1C[C@H](C)[C@H](CN(C)Cc2ccccn2)Oc2cc(-c3ccccc3)ccc2S1(=O)=O | 0.0[16.7 µM] |
| CS(=O)(=O)N1[C@H](C(=O)O)[C@@H](CO)[C@@H]2Cn3c(ccc(-c4ccc(F)cc4)c3=O)[C@@H]21 | 15.5[16.7 µM] |
| O=C(C[C@@H]1C=C[C@@H](NC(=O)C2CC2)[C@@H](CO)O1)NCCc1cscn1 | -59.1[16.7 µM] |
| O=C(NC1CCCCC1)OC[C@@H]1CSCCS(=O)(=O)N1 | -21.4 |
| C[C@@H]1CN([C@@H](C)CO)C(=O)c2ccccc2-c2ccccc2CO[C@H]1CN(C)S(=O)(=O)c1cccc(F)c1 | 20.5[16.7 µM] |
| CO[C@H]1CN(C)C(=O)c2ccc(NC(C)=O)cc2OC[C@@H](C)N(C(=O)c2ccccc2)C[C@@H]1C | 2.6[16.7 µM] |
| COc1ccc2c3c([nH]c2c1)[C@H](CO)N(Cc1cccnc1)CC31CCN(C(=O)c2cccnc2)CC1 | -4.3[16.7 µM] |
| O=C(Nc1nccs1)[C@@H]1[C@@H](CO)[C@@H]2Cn3c(cccc3=O)[C@H]1N2C(=O)C1CCCC1 | -1.1[16.7 µM] |
| COC(=O)C(Cc1ccc(O)cc1)NS(=O)(=O)Cc1ccccc1 (configuration not stated) | 4.0 |
| COCC(=O)Nc1ccc2c(c1)C(=O)N(C)C[C@@H](OC)[C@H](C)CN(C(=O)c1ccccc1)[C@@H](C)CO2 | -9.8[16.7 µM] |
| COCCNC(=O)C[C@@H]1CC[C@@H]2[C@H](COC[C@H](O)CN2C(=O)c2cc(Cl)cc(Cl)c2)O1 | -8.6[16.7 µM] |
| COCC(=O)Nc1ccc2c(c1)OC[C@H](C)N(C(C)=O)C[C@@H](C)[C@@H](OC)CN(C)C2=O | 0.0[16.7 µM] |

A few values from above.
CCNC(=O)[C@@H]1[C@@H](CO)[C@@H]2Cn3c(ccc(-c4ccccc4)c3=O)[C@H]1N2CCC(F)(F)F | Env fusion inh: 11.5[16.7 µM]
COCCNC(=O)C[C@@H]1CC[C@@H]2[C@H](COC[C@H](O)CN2C(=O)c2cc(Cl)cc(Cl)c2)O1 | Env fusion inh: -8.6[16.7 µM]
O=C(Nc1nccs1)[C@@H]1[C@@H](CO)[C@@H]2Cn3c(cccc3=O)[C@H]1N2C(=O)C1CCCC1 | Env fusion inh: -1.1[16.7 µM]

The listing continues.
| smiles | Env fusion inh |
| --- | --- |
| O=C(NC1CCCC1)[C@@H]1CCCN1C(=O)[C@@H](NS(=O)(=O)c1ccc(F)cc1F)C1CCCCC1 | 4.1 |
| O=C(C[C@@H]1CC[C@H]2NC[C@H](O)COC[C@@H]2O1)NCc1ccc2c(c1)OCO2 | -7.9[16.7 µM] |
| CO[C@H]1CN(C)C(=O)c2ccc(NS(C)(=O)=O)cc2OC[C@@H](C)N(CC2CCCCC2)C[C@@H]1C | -4.0[16.7 µM] |
| CCCN(C)C[C@H]1Oc2cc(-c3cccc(F)c3)ccc2S(=O)(=O)N([C@@H](C)CO)C[C@H]1C | 3.3[16.7 µM] |
| COCCNC(=O)C[C@H]1C[C@H]2c3cc(NC(=O)Nc4ccc(C(F)(F)F)cc4)ccc3O[C@H]2[C@H](CO)O1 | 13.8[16.7 µM] |
| CCS(=O)(=O)N1CC2(CN(C(=O)CN3CCOCC3)[C@@H](CO)c3c2c2ccc(OC)cc2n3C)C1 | -13.8[16.7 µM] |
| COc1cccc(S(=O)(=O)N2CC3(CN(C(=O)Nc4cccc(F)c4)[C@@H](CO)c4[nH]c5cc(OC)ccc5c43)C2)c1 | 93.3*[16.7 µM] |
| COC(=O)C1=C(C)N(Cc2ccc(Cl)cc2)C(=S)NC1c1ccc(Br)cc1 (configuration not stated) | 55.7* |
| COc1ccc(CN(C)C[C@H]2Oc3ccc(NC(=O)NC(C)C)cc3C(=O)N([C@H](C)CO)C[C@H]2C)cc1 | -2.4[16.7 µM] |
| CC(C)NC(=O)N(C)C[C@H]1OCCCC[C@@H](C)Oc2ccc(NC(=O)C3CCCCC3)cc2C(=O)N([C@@H](C)CO)C[C@H]1C | -19.0[16.7 µM] |
| O=C(C[C@@H]1C[C@@H]2c3cc(NC(=O)Nc4ccccc4)ccc3O[C@@H]2[C@@H](CO)O1)NCc1ccccc1 | 59.0*[16.7 µM] |
| O=C(C[C@@H]1CC[C@H](NC(=O)Cc2cccnc2)[C@H](CO)O1)Nc1ccc(-c2ccccc2)cc1 | 3.2[16.7 µM] |
| C[C@H](CO)N1C[C@H](C)[C@H](CN(C)C(=O)NC2CCCCC2)OCCCC[C@H](C)Oc2ccc(NS(C)(=O)=O)cc2C1=O | -13.2[16.7 µM] |
| O=C(Cn1cc(COC(=O)c2c3ccccc3cc3ccccc23)nn1)c1ccc(O)cc1 | -38.0 |
| CCCN1CCCCC(NC(=O)COCc2ccccc2)C1=O (configuration not stated) | 17.6 |
| O=C(NCc1ccccc1)[C@@H]1CCCN1C(=O)[C@H]1CCCN1C(=O)c1ccccc1Cl | -26.3 |
| COc1cc(OC)c(NC(=O)C(Sc2nc(C)cc(C)c2C#N)c2ccccc2)cc1Cl (configuration not stated) | 43.4 |
| CN(C)c1ccc2c(c1)[C@@H]1C[C@H](CC(=O)NCc3cccc(F)c3)O[C@@H](CO)[C@@H]1O2 | -17.7[16.7 µM] |
| O=C(Nc1ccccc1F)N[C@H]1CC[C@@H](CCNC(=O)C2CCCCC2)O[C@H]1CO | -15.2[16.7 µM] |
| CO[C@@H]1CN(C)C(=O)c2ccc(NS(C)(=O)=O)cc2OC[C@@H](C)N(S(C)(=O)=O)C[C@H]1C | 1.8[16.7 µM] |
| O=C(Cc1ccncc1)Nc1ccc2c(c1)[C@@H]1C[C@H](CC(=O)N3CCc4ccccc4C3)O[C@H](CO)[C@@H]1O2 | 4.8[16.7 µM] |
| O=C(C[C@@H]1CC[C@@H]2NC[C@H](O)COC[C@H]2O1)NCc1ccc2c(c1)OCO2 | 16.3[16.7 µM] |
| C[C@H]1CN([C@@H](C)CO)S(=O)(=O)c2ccc(C#CC3CC3)cc2O[C@@H]1CN(C)C(=O)Nc1cc(F)ccc1F | -7.2[16.7 µM] |
| COc1cc2c(cc1OC)[C@@]13ON=C(c4ccc(OCCO)cc4)[C@@H]1CCN3CC2 | 11.9[16.7 µM] |
| CC(C)NC(=O)Nc1ccc2c(c1)C(=O)N([C@@H](C)CO)C[C@@H](C)[C@@H](CN(C)C)O2 | -6.7[16.7 µM] |
| C[C@H](NC(=O)C[C@H]1C[C@H]2c3cc(NC(=O)Nc4ccc(C(F)(F)F)cc4)ccc3O[C@H]2[C@H](CO)O1)c1ccccc1 | -14.9[16.7 µM] |
| COc1ccc(C(=O)C(=O)N2CCN(C(=O)c3cc(C(F)(F)F)cc(C(F)(F)F)c3)CC2)cc1OC | 3.0 |
| COC(=O)C1=C(C)N(Cc2ccccc2C(F)(F)F)C(=NCc2ccc(C(F)(F)F)cc2)NC1c1ccc(Cl)cc1 (configuration not stated) | -9.4 |
| CO[C@H]1CN(C)C(=O)c2cc(NS(=O)(=O)c3ccc(C)cc3)ccc2OC[C@H](C)N(C(=O)NC(C)C)C[C@H]1C | 0.1[16.7 µM] |
| COc1cccc(C(=O)Nc2ccc3c(c2)C(=O)N(C)[C@H]2CC[C@H](CC(=O)NCCCN4CCOCC4)O[C@@H]2CO3)c1 | 11.7[16.7 µM] |

Some of the entries above, reformatted:
Env fusion inh,structure
-13.2[16.7 µM],C[C@H](CO)N1C[C@H](C)[C@H](CN(C)C(=O)NC2CCCCC2)OCCCC[C@H](C)Oc2ccc(NS(C)(=O)=O)cc2C1=O
-38.0,O=C(Cn1cc(COC(=O)c2c3ccccc3cc3ccccc23)nn1)c1ccc(O)cc1
17.6,CCCN1CCCCC(NC(=O)COCc2ccccc2)C1=O (configuration not stated)
-26.3,O=C(NCc1ccccc1)[C@@H]1CCCN1C(=O)[C@H]1CCCN1C(=O)c1ccccc1Cl

New compounds follow.
> COCC(=O)Nc1ccc2c(c1)OC[C@@H](C)N(CC1CC1)C[C@@H](C)[C@@H](OC)CN(C)C2=O
  Env fusion inh: 9.3[16.7 µM]
> C[C@H](O)[C@@H]1C(=O)N2CCc3c([nH]c4c(-c5ccccc5)cccc34)[C@@H]2C[C@@H]1N(C)C(=O)c1ccccc1F
  Env fusion inh: -65.6
> O=C(Nc1cc(F)ccc1F)N[C@H]1CC[C@@H](CC(=O)N2CCc3ccccc3C2)O[C@H]1CO
  Env fusion inh: 44.4[16.7 µM]
> CC(C)NC(=O)Nc1ccc2c(c1)C(=O)N([C@H](C)CO)C[C@H](C)[C@H](CN(C)C(=O)Cc1ccccc1)OCCCC[C@H](C)O2
  Env fusion inh: -18.6[16.7 µM]
> CN(C)C(=O)C[C@H]1C[C@@H]2c3cc(NC(=O)NC4CCCC4)ccc3O[C@@H]2[C@@H](CO)O1
  Env fusion inh: 10.8
> COC(=O)[C@H]1[C@H](CO)[C@H]2Cn3c(ccc(-c4cccc(F)c4)c3=O)[C@H]2N1Cc1ccncc1
  Env fusion inh: 2.8[16.7 µM]
> COCc1[nH]nc2c1C(c1ccc3c(c1)OCO3)N(c1ccc(OC)cc1)C2=O (configuration not stated)
  Env fusion inh: -13.9
> CO[C@@H]1CN(C)C(=O)c2ccc(NS(=O)(=O)CC(F)(F)F)cc2OC[C@H](C)N(Cc2cccnc2)C[C@H]1C
  Env fusion inh: -1.8[16.7 µM]
> Cc1ccc(S(=O)(=O)Nc2ccc3c(c2)C(=O)N([C@@H](C)CO)C[C@H](C)[C@@H](CN(C)C(=O)Nc2ccc4c(c2)OCO4)O3)cc1
  Env fusion inh: 8.1[16.7 µM]
> CCCN1[C@@H]2c3ccc(-c4cccnc4)c(=O)n3C[C@H]1[C@H](CO)[C@H]2C(=O)NCCc1cn(C)cn1
  Env fusion inh: 19.3[16.7 µM]

> O=C(C[C@H]1C[C@@H]2c3cc(NS(=O)(=O)c4ccc(F)cc4)ccc3O[C@@H]2[C@@H](CO)O1)NC1CCCCC1
  Env fusion inh: -10.3[16.7 µM]
> O=C(NCCN1CCCCC1)[C@H]1N[C@H]2c3ccc(-c4cccnc4)c(=O)n3C[C@H]2[C@@H]1CO
  Env fusion inh: -3.2[16.7 µM]
> CS(=O)(=O)Nc1ccc2c(c1)[C@H]1C[C@@H](CC(=O)NCC3CC3)O[C@H](CO)[C@H]1O2
  Env fusion inh: -5.6[16.7 µM]
> CN(C)C(=O)c1ccc(-c2cccc(-c3nc(C(=O)NC4CCC4)cc4c3[C@H](CCO)N([S@@](=O)C(C)(C)C)C4)c2)cc1
  Env fusion inh: 5.2[16.7 µM]
> O=[N+]([O-])c1cc(S(=O)(=O)NCc2ccco2)ccc1NN=Cc1ccccn1
  Env fusion inh: 7.5
> C[C@@H]1CN([C@H](C)CO)C(=O)c2ccccc2-c2ccccc2CO[C@@H]1CN(C)C(=O)c1ccncc1
  Env fusion inh: -2.4[16.7 µM]
> C[C@@H]1CCCCO[C@H](CN(C)CC2CC2)[C@H](C)CN([C@@H](C)CO)C(=O)c2cc(NC(=O)Nc3ccccc3)ccc2O1
  Env fusion inh: -2.5[16.7 µM]
> CCOc1cc(OCC)cc(C(=O)N2CCC[C@@H]2C(=O)N2CCC[C@H]2C(=O)NCc2ccccc2)c1
  Env fusion inh: -15.0

Source: PubChem BioAssay (Broad Institute)
